Screens from PubChem BioAssay.
Biofilm kill mix: mixtures killing C. albicans biofilm; C. albicans biofilm persisters + clotrimazole, fluorescence viability; primary screen in compound mixtures of four per well; inhibition, % at 7.6 µM; actives 0.02% (n = 120,000); AID 1242;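 active = inhibition above 30.3% in the primary screen of four-compound pools, then above 30% when the compound was retested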;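 note: compounds exposed to preformed 24 h biofilms for 48 h; the number belongs to the whole pool; some results filed as inactive read as strong as hits; inactives centre near 12; 0% = biofilm with clotrimazole alone and 100% = kill control; retested singly at about 60 µM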
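Incubation: 24 h biofilm formation, then 48 h compound exposure, 37 °C | Material: C. albicans biofilms | Buffer or medium: RPMI/MOPS medium, pH 7.0 | Measured by: 2-h Alamar Blue fluorescence, 535/590 nm excitation/emission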
The depositor's hits bear a star. Only part of the results is shown; the hit share may differ from the screen's.

entry	molecule	Biofilm kill mix
1	CCOP(=O)(OCC)C(Nc1cccc([N+](=O)[O-])c1)c1ccccc1 (stereo not given)	19
2	CCOC(=O)N1CCC(N2CCN(Cc3ccc(F)c(F)c3)C(CCO)C2)CC1 (stereo not given)	14
3	CCOC(=O)N1CCN(C(=S)Nc2ccccc2C(C)C)CC1	5
4	Cc1ccccc1C(=O)NC(CC(C)C)C(=O)OCC(=O)c1c(N)n(C)c(=O)n(C)c1=O (stereo not given)	9
5	COc1ccc(C2(C(=O)Nc3ccc(C)c(C)c3)CCOCC2)cc1	21
6	CC1(C)CC(=O)C2=C(C1)N(c1ccc(F)cc1)C(=O)C2(NC(=O)c1ccccc1)C(F)(F)F (stereo not given)	10
7	C[C@H](NC(=O)OCc1ccccc1)c1nnc([C@H](Cc2ccccc2)NC(=O)OC(C)(C)C)o1	18
8	CCc1ccccc1NNC(=O)c1snnc1C	16
9	CCOc1ccc2nc(NC(=O)c3c([N+](=O)[O-])cnn3CC)sc2c1	17
10	O=C1CC(C(=O)Nc2ccc(F)cc2)n2cnnc2N1 (stereo not given)	0
11	CCCC1=NN(C(=O)Cc2ccc(OC)c(OC)c2)C(O)(C(F)(F)F)C1 (stereo not given)	22
12	Cc1ccc(-c2cc(C(=O)NCCCn3ccnc3)c3ccccc3n2)s1	1
13	CNC(=S)N/N=C/c1ccc(-c2ccc(C(=O)O)cc2)o1	12
14	C[C@@H]1C=C[C@](Cc2ccccc2)(C(=O)NCCc2c[nH]c3ccccc23)N1C(=O)c1ccccc1	12
15	CC12CCC(C(=O)O)(c3nc4cc([N+](=O)[O-])ccc4nc31)C2(C)C (stereo not given)	21
16	O=C(CSc1ccc(Cl)cc1)NC1CCCc2ccccc21 (stereo not given)	9
17	COc1ccc(CNC(=O)c2sc(=S)n(-c3ccccc3)c2N)cc1	14
18	NC(=O)/C(=C\c1ccncc1)c1cccc2ccccc12	16
19	O=C(CC1C(=O)NCCN1Cc1c(F)cccc1Cl)NCCC1=CCCCC1 (stereo not given)	30
20	COc1ccc(C(=O)Nc2cc(OC)c(Cl)cc2Cl)cc1	20

Shown with each value named: 4 of the compounds above.
11. CCCC1=NN(C(=O)Cc2ccc(OC)c(OC)c2)C(O)(C(F)(F)F)C1 (stereo not given)
  Biofilm kill mix = 22
12. Cc1ccc(-c2cc(C(=O)NCCCn3ccnc3)c3ccccc3n2)s1
  Biofilm kill mix = 1
13. CNC(=S)N/N=C/c1ccc(-c2ccc(C(=O)O)cc2)o1
  Biofilm kill mix = 12
14. C[C@@H]1C=C[C@](Cc2ccccc2)(C(=O)NCCc2c[nH]c3ccccc23)N1C(=O)c1ccccc1
  Biofilm kill mix = 12

Next section:
entry	molecule	Biofilm kill mix
21	CC(=O)Nc1ccc(-n2c(C)ccc2C)cc1	15
22	CC(C)(O)C#Cc1ccc(C(=O)N2CCN(c3ccccc3)CC2)cc1	16
23	COc1ccc(Cl)cc1-n1c(C)ccc1C	6
24	Cc1cc(=O)[nH]c(-c2ccc(C(F)(F)F)cc2)n1	10
25	O=S(=O)(NC1CCCCC1Oc1ccccc1)c1ccccc1 (stereo not given)	8
26	CC(C)C(=O)Nc1ncc(Cc2ccccc2Cl)s1	19
27	COc1ccc(/C=C/c2c([N+](=O)[O-])c(=O)n(C)c(=O)n2C)c(OC)c1	0
28	COc1ccc(OC)c(C2/C(=C(/O)c3ccccc3)C(=O)C(=O)N2Cc2ccco2)c1 (stereo not given)	4
29	Cc1cccc(N/C(N)=N/c2nc(C)c(Cc3ccccc3)c(=O)[nH]2)c1	15
30	CCOC(=O)N1CCC(N2CCCC(C(=O)c3cccc(OC)c3)C2)CC1 (stereo not given)	15
31	O=C(c1cc(C(=O)N2CCOCC2)c2nc3ccccc3n2c1)c1cc(Cl)cc(Cl)c1O	7
32	COc1ccc(NC(=O)Cn2nnc(C(=O)NCc3ccc4c(c3)OCO4)c2N)cc1	7
33	CC(=O)N(C(C)=O)c1nc(-c2ccccc2)cn1/N=C/c1ccccc1	20
34	Cc1cc(C)cc(NC(=O)COC(=O)c2cc(=O)[nH]c(=O)[nH]2)c1	32
35	Cc1sc(N(C(=O)CCc2ccccc2)c2ccc(C(=O)O)cc2)nc1-c1ccccc1	17
36	Nc1nc(Br)c2ccccc2c1-c1ccccc1	11
37	CC(=O)c1sc2nsc(SCCN3CCCC3)c2c1N	14
38	c1coc(-c2ccnc3ncnn23)c1	6
39	Cc1nn(-c2nnc(NCc3ccccc3)nn2)c(C)c1Br	9
40	COn1c(-c2ccc(Cl)cc2Cl)nc2ncccc21	14
41	Cc1cc(S(=O)(=O)Nc2c(C)nn(C)c2C)c(Cl)cc1Cl	2
42	Cc1ccc2nc(N3CCN(c4ccccc4)CC3)c(C=O)c(=O)n2c1	11
43	c1ccc(CC2CCN(Cc3ccccn3)CC2)cc1	6
44	CCn1c(CNC(=O)c2ccco2)nnc1SCC(=O)Nc1cccc(F)c1	-2
45	COc1ccc(S(=O)(=O)n2nc(OC(C)=O)cc2N(C(C)=O)C(C)=O)cc1	20
46	N#C/C(C(=O)NCc1ccco1)=C1/SC=C(c2ccccc2)N1c1ccccc1	10
47	Nc1ncnc2c1ncn2C1OC(CO)C(O)C1O (stereo not given)	31
48	Cc1c(NC(=O)C(C)OC(=O)CC2CC3CCC2C3)c(=O)n(-c2ccccc2)n1C (stereo not given)	2
49	CN(c1ncnc(N)c1[N+](=O)[O-])C1CCS(=O)(=O)C1 (stereo not given)	10
50	CSc1nnc(C(C)(C)C)c(=O)n1/N=C/c1ccc(Cl)cc1	19
51	CNC(=O)CCCCCNS(=O)(=O)c1ccc(C)cc1	9
52	Cc1ccccc1NC(=O)C1C2CCC(O2)C1C(=O)O (stereo not given)	12
53	Oc1ccc2ccccc2c1C=NCc1ccccc1	13
54	O=C(O)COCC(=O)Nc1ccccc1-c1ccccc1	6
55	COc1ccc(CCNC(=O)COC(=O)Cc2ccc(OC)cc2)cc1	14
56	O=C(Nc1ccc2ccccc2c1)/C(=C\c1ccc2c(c1)OCO2)NC(=O)c1ccco1	11
57	Cc1cccc(C)c1N(CC(=O)N/N=C/c1cc(Br)c(C)o1)S(C)(=O)=O	14
58	CC(C)Nc1ccc(Nc2ccnc3cc4ccccc4cc23)cc1	15
59	COC(=O)c1cn(NC(=O)/C=C/c2cccc(OC)c2OC)c(=O)c2ccccc12	11
60	CNC(=O)c1ccc(-c2cc(C(F)(F)F)nn2C)s1	7
61	Cc1ccc(Nc2nc(-c3ccc(O)c(O)c3)cs2)nc1	13
62	Cc1ccc(S(=O)(=O)CCN2CCN(c3ccccn3)CC2)cc1	11
63	FC(F)(F)c1ccc(Oc2ccccc2Cl)nc1	16
64	Cc1ccc(CN2CCN(Cc3ccc(Oc4ncccn4)cc3)CC2CCO)cc1 (stereo not given)	19
65	NS(=O)(=O)c1ccc2nc(NC(=O)c3ccncc3)sc2c1	8
66	Cc1c(C)c2ccc(OS(C)(=O)=O)c(C)c2oc1=O	15
67	O=[N+]([O-])c1cc(C2Nc3cccc4cccc(c34)N2)ccc1Cl	12
68	CCOC(=O)C1=C(C)NC(C)=C(C(=O)OCC)C1c1ccco1	20
69	O=c1cc(N2CCc3ccccc32)[nH]c(=O)n1Cc1ccc(F)cc1	6
70	Cc1ccc2nc(N3CCN(C=O)CC3)nc(-c3ccccc3)c2c1	13
71	Cc1nn(-c2ccccc2)c(C)c1C=O	24
72	O=C(CSc1ccc(-c2ccc(F)cc2)nn1)NCc1ccco1	13
73	Cc1cc(C)cc(N(C(=O)Cn2nnc(-c3ccccc3)n2)C(C(=O)NC2CCCCC2)c2ccccn2)c1 (stereo not given)	10
74	CC[N+](CC)(CC)CCCCOc1ccc2c(c1)C(=O)c1cc(OCCCC[N+](CC)(CC)CC)ccc1-2	27
75	CCOC(=O)CC1C(=O)NCCN1C(=O)c1sc2ccccc2c1Cl (stereo not given)	6
76	O=C(OCc1nnc(-c2ccc(Br)cc2)o1)c1cncc(Br)c1	-7
77	CCC(=O)Oc1ccc(NC(=O)c2ccco2)cc1	0
78	CC(C)c1nc(Cl)c(C#N)c2c1CCC2	2
79	CCOC(=O)c1ccc(NC(=O)C(=O)NCCc2ccc(OC)cc2)cc1	16
80	CCCCc1cc(=O)oc2c(C)c(OCc3nn[nH]n3)ccc12	18

(continued)
entry	molecule	Biofilm kill mix
81	O=C(N/N=C1\CCS(=O)(=O)c2ccc(F)cc21)c1ccc([N+](=O)[O-])cc1	15
82	CCOc1ccccc1NC(=O)NCc1ccco1	13
83	CCc1c(C)c(C#N)c2nc3ccccc3n2c1Cl	7
84	CCc1ccnc(NC(=O)NS(=O)(=O)c2ccc(C)cc2)c1	10
85	O=C(c1ccc(C(F)(F)F)cc1)N1CCC(=O)N(C(COCc2ccc(C(F)(F)F)cc2)Cc2ccccc2)CC1 (stereo not given)	16
86	O=C(CN1CCN(c2cccc(Cl)c2)CC1)Nc1nccs1	11
87	CN1CCN(c2nc(-c3cccs3)nc3ccccc23)CC1	5
88	O=C(OCC(=O)N1CCc2ccccc2C1)c1cccc([N+](=O)[O-])c1	26
89	C/C(=N\NC(=O)Cc1cccn1C)c1cccs1	0
90	Cc1cc(C)cc(C(=O)NCC(=O)OCC(=O)Nc2cccnc2Cl)c1	13
91	C=CCn1c(-c2ccc([N+](=O)[O-])cc2)n[nH]c1=S	1
92	O=C(NC1=NCCS1)C1CCCCC1	15
93	COc1ccc(COc2cc(-c3cccc(OC)c3)nc3ccc(NC(=O)C(C)C)cc23)cc1	-2
94	CN(C)CCCN(C(=O)COc1ccccc1)c1nc2c(Cl)cccc2s1	-2
95	Nc1cc(-c2ccc(OC(F)(F)F)cc2)nn1-c1ccc(Cl)c(Cl)c1	25
96	COc1ccc(N2C(=O)c3ccccc3NC23CCCC3)cc1	9
97	O=C(Nc1ccc(Br)cc1F)C1CCCO1 (stereo not given)	8
98	C/C(=N\Nc1cccc2cccnc12)c1ccccn1	-8
99	COc1ccc([N+](=O)[O-])cc1N(CC(O)CN(C)C)S(=O)(=O)c1ccc(C)cc1 (stereo not given)	19
100	COc1cccc(OC)c1NC(=O)NC(=O)c1c(OC)c(Br)cc([N+](=O)[O-])c1OC	13

Part of the list above in order of heavy-atom count, low to high.
entry	molecule	Biofilm kill mix
86	O=C(CN1CCN(c2cccc(Cl)c2)CC1)Nc1nccs1	11
95	Nc1cc(-c2ccc(OC(F)(F)F)cc2)nn1-c1ccc(Cl)c(Cl)c1	25
100	COc1cccc(OC)c1NC(=O)NC(=O)c1c(OC)c(Br)cc([N+](=O)[O-])c1OC	13

(next part)
entry	molecule	Biofilm kill mix
101	CC1(C)CC(=O)C(C(N)=NC(=O)c2ccc([N+](=O)[O-])cc2)=C(O)C1	12
102	O=C(Nc1ccccc1N1CCOCC1)c1csc2c1CCCC2	34
103	CC(C)CN1C(=O)C(=O)N(CC(=O)Nc2cc(Cl)ccc2Oc2ccccc2)C1=O	10
104	O=C(OCCCCOC(=O)c1ccccc1)c1ccccc1	19
105	c1cc2c(cnc3cscc32)s1	18
106	Clc1ccc(-c2c[nH]c3ccccc23)nn1	0
107	CCNc1nc(NC(C)(C)C)nc(Oc2ccc(=O)n(-c3ccccc3)n2)n1	19
108	Cc1ccc(NC(=O)OC(C)CNC(=O)Oc2cccc(C)c2)cc1 (stereo not given)	16
109	Cc1cccc(NCc2ccccc2)c1	26
110	CC(=O)Nc1cccc2c1C(=O)N(c1ccc(C)cc1)C2=O	7
111	Cc1cc(OCC(=O)NC2CCN(C)CC2)ccc1[N+](=O)[O-]	8
112	CN(C)c1nc(OCCNC(=O)COc2ccccc2Cl)nc(N(C)C)n1	22
113	Cc1ccc(C)n1-c1ccc(C(=O)/C=C/N(C)C)cc1	11
114	Cc1ccc2[nH]cc(CCNC(=O)c3ccc([N+](=O)[O-])cc3)c2c1	10
115	COc1cccc(-c2cc3nc(-c4ccccc4)cc(N4CCCC(O)C4)n3n2)c1 (stereo not given)	26
116	O=C(/C=C/c1ccc(S(=O)(=O)N2CCOCC2)cc1)NCc1ccccc1Cl	4
117	CCOC(=O)CNC(=O)CSc1nnc(NC(=O)c2ccccc2Cl)s1	12
118	Cc1ccc(CNc2oc(-c3ccco3)nc2S(=O)(=O)c2ccccc2)cc1	-3
119	CN(CC(=O)O)c1ccc(C(F)(F)F)cc1[N+](=O)[O-]	8
120	CN1/C(=C\C=Nc2cc(S(=O)(=O)N3CCOCC3)ccc2N2CCOCC2)C(C)(C)c2ccccc21	12
121	COc1cc(C(=O)OC(C)CN2CCOCC2)cc(OC)c1OC (stereo not given)	14
122	COc1ccc(C(=O)Nc2ccc(S(=O)(=O)N3CCCC3)cc2)cc1	33
123	COc1ccc(OCc2nc3c4c(ncn3n2)-c2ccccc2CC42CCCC2)cc1	16
124	O=C(CSc1ccc(-c2ccc(F)cc2)nn1)Nc1ccc2c(c1)OCCO2	4
125	O=C(Nc1ccc(Cl)cc1)Nc1ccccc1Sc1ncc([N+](=O)[O-])s1	14
126	C=CCn1c(C)cc(C(=O)COC(=O)/C=C/c2ccc(OC)cc2)c1C	-2
127	CCN(CC)c1ccc(C(=O)N/N=C/c2ccc(OC)cc2OC)cc1	11
128	COc1cc2c(=O)n(CCCC(=O)NCC3CCCO3)c(=O)n(CC(=O)c3ccc(F)cc3)c2cc1OC (stereo not given)	9
129	Cn1nc2sc3ccccc3n2c(=O)c1=O	29
130	Cc1cc(SCC(=O)NC(=O)c2cccn2C)nc2ccccc12	11
131	COc1ccc2nc3ccccc3nc2c1NC(=O)c1ccc(Br)cc1	6
132	Cc1nn2c(=O)c3c4c(sc3nc2n1-c1ccccc1)COC(C)(C)C4	6
133	Cc1cccc(NC(=O)CN(c2ccc(F)cc2)S(C)(=O)=O)c1	2
134	Cc1ccc(/C=N/NC(=O)c2ccoc2C)s1	10
135	CC(C)(C)NC(=O)/C(=C/c1cccnc1)NC(=O)c1ccco1	19
136	Cc1cccc(/C(N)=N/OC(=O)COc2ccccc2Cl)c1	3
137	N#Cc1cnn2c3c(cnc12)C(=O)N1CCc2ccccc2C1C3 (stereo not given)	19
